High-throughput results deposited in PubChem BioAssay by ICCB-Longwood Screening Facility, Harvard Medical School.
GIV-Gai inh – inhibitors of GIV peptide binding to Galpha-i3, primary screen, biochemical, fluorescence polarization, FITC-GIV GBA peptide, rat Galphai3. 90 min; stronger effect = lower value; scaled: aluminum fluoride 0%, vehicle 100%. percent of control (FP), % (test concentration not listed). 210,000 tested, 0.42% active. AID 1224905, 2016;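 active = replicate mean at 85% of control or lower, very high polarization wells dropped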;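 note: wells of about 15 µL received 100 nL stock; the first replicate is given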
Target sequence (P08753 whole entry, looked up): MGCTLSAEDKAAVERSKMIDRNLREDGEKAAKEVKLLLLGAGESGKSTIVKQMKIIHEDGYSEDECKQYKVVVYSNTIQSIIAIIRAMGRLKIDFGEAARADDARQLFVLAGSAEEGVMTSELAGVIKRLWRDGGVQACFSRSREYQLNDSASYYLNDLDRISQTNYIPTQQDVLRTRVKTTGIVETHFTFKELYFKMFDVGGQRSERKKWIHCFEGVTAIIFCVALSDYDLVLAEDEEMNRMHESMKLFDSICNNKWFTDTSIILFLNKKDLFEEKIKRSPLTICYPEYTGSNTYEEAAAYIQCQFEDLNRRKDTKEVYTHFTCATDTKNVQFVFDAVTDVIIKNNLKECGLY
Sa growth inh – S. aureus growth inhibition at 42 and 30 °C, primary screen, LtaS inhibitor project, RN4220, two temperatures. OD600, 20 h, 42 °C; stronger effect = lower value. relative growth, % (concentration not given with the values). 170,000 tested, 0.53% active;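 active = growth at 42 °C up to 50% and 20 or more points under that at 30 °C, or under 10% at both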;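 note: 300 nL library stock went into each well; scaled to the means of positive and negative controls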
HCMV NEC inh – inhibitors of HCMV UL50-UL53 interaction, biochemical, HTRF; HCMV UL50-UL53 nuclear egress complex (human cytomegalovirus); normalized percent inhibition; inhibition, % (no concentration beside the values); 190,000 tested, 0.15% active;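 active = both replicates at 50% or more, plus weaker picks with an unusually low signal ratio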;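 note: stock transfer was 100 nL into about 20 µL; 0% = negative control wells and 100% = wells with untagged competitor protein; inactives centre near -12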
Sa growth inh second temp – further read-out of Sa growth inh, marked with its call; relative growth, %; measured here: growth at 30 °C;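 optical density after 20 h as mean of two plates; 100% = untreated growth and lower means inhibition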
Starred values were filed as active, the others as inactive; x = not tested or not shown; & = joins results of further samples.

SMILES	GIV-Gai inh	Sa growth inh	Sa growth inh second temp	HCMV NEC inh
O=C(N/N=C/c1ccccc1)C(O)c1ccccc1 (stereo unspecified)	98	105	101	-25
COc1cccc(-n2cc(C(=O)N3CCC(C)CC3)c3ccccc3c2=O)c1	103	64	77	-25
COc1ccc(OC)c(NC(=O)Cn2cc(C(=O)c3ccco3)c3ccccc32)c1	101	89	72	-2
Cc1ccc(CCNS(=O)(=O)c2c(C)nc3sc(C)c(C)n3c2=O)cc1	106	126	89	x
Cc1cccc(C)c1OCc1nnc(CCc2ccccc2)o1	97	154	88	x
Cn1cc(NC(=O)Nc2ccc(S(=O)(=O)N3CCCCC3)cc2)c2ccccc2c1=O	101	94	88	-27
CC(O)CNCc1ccc(-c2ccccc2)o1 (stereo unspecified)	105	101	82	-25
Cc1ccc(C2CC(=O)N(Cc3ccccc3)c3c2c(C)nn3-c2nc(C)cc(C)n2)cc1 (stereo unspecified)	97	100	82	-32
Nc1c(Cl)cnn(-c2ccccc2)c1=O	102	108	95	-79
COc1ccc(S(=O)(=O)NCCc2csc(-c3ccc(Cl)cc3)n2)cc1	103	x	x	-15

Three compounds already listed, arranged by their value in GIV-Gai inh, smallest number first:
smiles	GIV-Gai inh	Sa growth inh second temp
Cc1ccc(C2CC(=O)N(Cc3ccccc3)c3c2c(C)nn3-c2nc(C)cc(C)n2)cc1 (stereo unspecified)	97	82
Nc1c(Cl)cnn(-c2ccccc2)c1=O	102	95
Cc1ccc(CCNS(=O)(=O)c2c(C)nc3sc(C)c(C)n3c2=O)cc1	106	89

Following part
SMILES	GIV-Gai inh	Sa growth inh	Sa growth inh second temp	HCMV NEC inh
COc1ccc(Oc2ccc(C(F)(F)F)c(NC(=O)C3CCC3C(=O)O)c2)cc1 (stereo unspecified)	93	91	96	-13
CCC(=O)Nc1ccccc1-c1nnc(SC(C)C(=O)Nc2ccccc2C)[nH]c1=O (stereo unspecified)	103	x	x	-14
COC(=O)COc1ccccc1/C=C1\C(=O)NC(=O)N(c2ccc(Br)cc2)C1=O	121	x	x	-18
O=c1c(=O)n(-c2ccc3c(c2)OCO3)ccn1Cc1ccc(F)cc1Cl	97	94	87	-32
COc1nc2c(s1)C(=O)NCCC2	100	86	78	-14
CCN1c2cc(C)ccc2-n2cccc2C12CCN(S(=O)(=O)c1ccc(C)cc1)CC2	104	x	x	-17
CS/C(=N\S(=O)(=O)c1ccccc1)Nc1c(C)nn(C)c1C	106	98	105	-1
CCC(C)NC(=O)CN1C(=O)COc2ccc(S(=O)(=O)N(CC)CC)cc21 (stereo unspecified)	103	x	x	-7
COc1cc(OC)cc(-n2c(=O)[nH]c3cc(C(=O)O)ccc3c2=O)c1	107	87	100	6
CCN(c1ccccc1)c1nc2ccccc2n2nnnc12	112	84	78	x
Cc1ccc(S(=O)(=O)N2CCC[C@H]2C(=O)OCC(=O)N2c3ccccc3NC(=O)C2(C)C)cc1	x	87	94	-20
O=C(NCC(c1cccs1)S(=O)(=O)c1cccs1)c1c(F)cccc1F (stereo unspecified)	104	87	87	x
CCc1ccc(S(=O)(=O)c2c(C(=O)N3CCCCC3)cnc3ccccc23)cc1	103	x	x	-24
NC(=O)NC(=O)C[n+]1ccc(/C=N/O)cc1	98	112	93	x
O=c1[nH]ccn(-c2ccc3c(c2)OCCO3)c1=O	101	x	x	-34
CN1C(=O)NC(=O)/C(=C/c2ccc(N(C)C)cc2)C1=O	97	87	101	-1
CC(C)Cn1ccc(=O)n(CC(C)C)c1=O	104	119	92	-2
CC1=NN(c2ccccc2)C(=O)C1(C)N (stereo unspecified)	104	98	99	-2
CCOC(=O)C1CCN(c2nc3ccccc3nc2C(C#N)C(=O)NCCc2ccc(OC)c(OC)c2)CC1 (stereo unspecified)	x	96	94	-4
CCOC(=O)C1=C(C)N=c2s/c(=C\c3cc4c(cc3Br)OCO4)c(=O)n2C1c1ccc(OC)cc1 (stereo unspecified)	99	x	x	6
C/C(=N\NC(=O)c1ccco1)c1ccc(C)o1	106	90	72	-60
CCCSc1nc(C)c(CC(=O)O)c(=O)[nH]1	100	77	90	2
FC(F)(F)c1cc(-c2cn3ccccc3n2)cc(C(F)(F)F)c1	98	90	91	-21
Cc1cc(=O)oc2cc(NC(=O)c3ccc(OC(F)F)cc3)ccc12	x	84	94	-10
CCc1ccc(NC(=O)C2CCN(c3nn4c(=O)cc(C)nc4s3)CC2)cc1	102	104	86	-22
Cc1ccc(OC(=O)CSc2nc(-c3ccccc3)nc3cc(=O)[nH]n23)c(C)c1	102	x	x	1
COc1ccc(Cl)cc1NC(=O)C(C)Sc1nc2c(c(=O)[nH]1)CCCC2 (stereo unspecified)	101&99	96	90	-18&-19
Cc1cc(-n2nc(C)cc2C)nc(-n2nc(C)cc2C)n1	102	x	x	-5
CN(Cc1ccccc1)C(=O)Cn1ncc2c3ccccc3n(Cc3ccccc3F)c2c1=O	105	115	98	1
OC(c1nc2ccccc2[nH]1)C(O)C(O)C(O)c1nc2ccccc2[nH]1 (stereo unspecified)	101	90	90	-16

In a second layout: entries from further up
Order of results: GIV-Gai inh | Sa growth inh | Sa growth inh second temp | HCMV NEC inh
- CCOC(=O)C1CCN(c2nc3ccccc3nc2C(C#N)C(=O)NCCc2ccc(OC)c(OC)c2)CC1 (stereo unspecified)
→ x | 96 | 94 | -4
- CCOC(=O)C1=C(C)N=c2s/c(=C\c3cc4c(cc3Br)OCO4)c(=O)n2C1c1ccc(OC)cc1 (stereo unspecified)
→ 99 | x | x | 6

Remaining list, next part
SMILES	GIV-Gai inh	Sa growth inh	Sa growth inh second temp	HCMV NEC inh
COc1ccc(-n2c(=O)c3c4c(sc3n(Cc3ccc(C(C)(C)C)cc3)c2=O)CCC4)c(OC)c1	105	91	85	-5
Cc1ccc(C)c(N2CCN(c3ncnc4onc(-c5ccc(F)cc5)c34)CC2)c1	105	96	92	-2
CCc1ccc(CN2CCc3nc(Nc4ccccc4)ncc3C2)cc1	104	107	80	x
CC(C)c1ccccc1NC(=O)CN1C(=O)c2cccc3cccc1c23	103	106	89	-15
O=C(Cn1[nH]c(=O)c2ccccc2c1=O)NCCCN1CCCC1=O	x	91	95	10
Cc1nc2nc(C3CCCCC3)nn2c(C)c1CC(=O)Nc1ccc(Br)cc1	98	x	x	12
COc1ccc(-c2noc(CSc3nnc(C)n3-c3cccc(C)c3)n2)cc1	105	114	92	1
Cc1ccc2nc(-c3ccncc3)c(Nc3ccc(C(C)C)cc3)n2c1	101	101	85	-5
Cc1ccc2c(c1)N(CCO)/C(=C/c1sc3ccccc3[n+]1C)S2	110	-1.4*	-0.7*	x
Cc1ccccc1OCC(=O)Nc1ccc(S(=O)(=O)Nc2ncccn2)cc1	110	102	100	-3
CCOC(=O)c1c(C)c(C(=O)NCCc2ccc(OC)cc2)c(C)n1C	96	105	82	-31
COc1ccc(C(=O)Nc2cc(C(F)(F)F)ccc2N2CCN(c3ccccc3)CC2)cc1OC	105	97	96	-8
Cc1onc(-c2ccccc2)c1C(=O)NCCSCc1ccco1	x	76	84	-14
Cc1nc2ccccn2c1-c1ccnc(SCC(=O)c2ccc(Cl)cc2)n1	106	109	85	22
Cc1cc(C)cc(N/C=C(\C#N)S(=O)(=O)Cc2ccc(Cl)cc2)c1	101	105	97	-3
Cc1ccc(Cn2c(SCc3ccc(C(=O)NCCN4CCOCC4)cc3)nc3ccncc32)cc1	104	x	x	-32
Cc1cc(C)c2oc(-c3cccc(NC(=O)COc4ccccc4Cl)c3C)nc2c1	96	100	87	-32
Cc1c(C)n(C)c2ccc(C(=O)O)cc12	103	92	93	2
Cc1ccc(NCc2ccc(O)c3ncccc23)cc1	x	80	65	-22
CCN1CCN(C(=O)C2=CC(c3ccc(OC)cc3)=NS(=O)(=O)N2C)CC1	107	102	100	x
CCn1ccc(C(=O)Nc2sc(C(=O)OC)c(C)c2C(=O)OC)n1	105	118	86	2
CN(C)CCN1CC(C(=O)O)CC1=O (stereo unspecified)	105	78	91	12
O=C(Nc1ccccc1)c1ccccc1SCC(=O)N1CCCC1	x	68	66	2
O=c1[nH]nc(SCc2ccccc2)c(=S)[nH]1	x	74	61	-60
CCCCOc1ccc(C(=O)On2c(C)nc3ccccc3c2=O)cc1	101	x	x	-9
COC(=O)NC(=S)Nc1ccc(Oc2ccc(Cl)cc2Cl)cc1	101	100	94	x
Cc1[nH]c2ccccc2c1C(Nc1ccccc1)c1ccccn1 (stereo unspecified)	x	113	107	13
CC(=O)Nc1sc(C)c(C)c1C(=O)OCC(=O)c1cc(C)n(-c2ccc3c(c2)OCCO3)c1C	x	90	100	-1
CCn1cc(C(=O)O)c(=O)c2cc(F)c(N3CCNCC3)cc21	100	-0.1*	0.2*	-30&-15&-12
Cc1ccc(C)c(N2CCN(C(=O)c3ccc4c(c3)c(C)c(C)n4C)CC2)c1	110	102	94	x
CCn1c(SCc2ccc(Br)cc2)nnc1-c1ccncc1	103	106	97	x
COc1ccccc1NC(=O)Cc1nc(CSc2nc(C)cs2)cs1	x	90	95	3
C=CCN(CC=C)C(=O)c1ccc(C)s1	103	114	100	-1
COc1ccccc1/C=N/NC1=NCCCCC1	x	106	79	-49
CCOC(=O)C1CC(O)CN1 (stereo unspecified)	95	101	79	0
NNC(=O)c1ccc(CSc2n[nH]c(=O)[nH]c2=O)cc1	x	111	74	-61
Cc1cn2c3ccccc3nc2n1CCCO	99	117	100	x
Nc1nc(-c2ccc3c(c2)OCCCO3)cc(C(F)(F)F)n1	100	89	72	-6
Cc1nc(N2C(=O)c3oc4ccccc4c(=O)c3C2c2cccc(OCCC(C)C)c2)sc1C (stereo unspecified)	100	99	90	-11
O=C(O)c1cc(-c2ccco2)nc2ccc(Br)cc12	x	109	76	-26
CC(=O)NCc1noc(-c2cccc(C)c2)n1	102	x	x	-6
CC(C)NC(=O)c1ccc(-n2c(-c3ccccc3)cc3c2CCCCC3)cc1	100	112	110	16
N=C1C(c2nc3ccccc3s2)=C(O)CN1CCc1c[nH]c2ccccc12	108	x	x	-9
Cc1ccccc1NC(=O)C(C)N(c1ccccc1)S(C)(=O)=O (stereo unspecified)	102	91	90	-8
COc1ccccc1N1CCN(c2ccc(-c3nc(-c4ccccc4)no3)cc2[N+](=O)[O-])CC1	106	95	86	-31
Cc1ccc(CNC(=O)Cn2c(=O)n(-c3cccc(Cl)c3)c(=O)c3sc4ccccc4c32)cc1	104	107	87	-44
CC1(C)CC(C(=O)Nc2nccs2)CCO1 (stereo unspecified)	102	93	85	1

Structures shown so far with a halogen:
SMILES	GIV-Gai inh	Sa growth inh	Sa growth inh second temp	HCMV NEC inh
Nc1c(Cl)cnn(-c2ccccc2)c1=O	102	108	95	-79
COc1ccc(S(=O)(=O)NCCc2csc(-c3ccc(Cl)cc3)n2)cc1	103	x	x	-15
COc1ccc(Oc2ccc(C(F)(F)F)c(NC(=O)C3CCC3C(=O)O)c2)cc1 (stereo unspecified)	93	91	96	-13
COC(=O)COc1ccccc1/C=C1\C(=O)NC(=O)N(c2ccc(Br)cc2)C1=O	121	x	x	-18
O=c1c(=O)n(-c2ccc3c(c2)OCO3)ccn1Cc1ccc(F)cc1Cl	97	94	87	-32
O=C(NCC(c1cccs1)S(=O)(=O)c1cccs1)c1c(F)cccc1F (stereo unspecified)	104	87	87	x
CCOC(=O)C1=C(C)N=c2s/c(=C\c3cc4c(cc3Br)OCO4)c(=O)n2C1c1ccc(OC)cc1 (stereo unspecified)	99	x	x	6
FC(F)(F)c1cc(-c2cn3ccccc3n2)cc(C(F)(F)F)c1	98	90	91	-21
Cc1cc(=O)oc2cc(NC(=O)c3ccc(OC(F)F)cc3)ccc12	x	84	94	-10
COc1ccc(Cl)cc1NC(=O)C(C)Sc1nc2c(c(=O)[nH]1)CCCC2 (stereo unspecified)	101&99	96	90	-18&-19
CN(Cc1ccccc1)C(=O)Cn1ncc2c3ccccc3n(Cc3ccccc3F)c2c1=O	105	115	98	1
Cc1ccc(C)c(N2CCN(c3ncnc4onc(-c5ccc(F)cc5)c34)CC2)c1	105	96	92	-2
Cc1nc2nc(C3CCCCC3)nn2c(C)c1CC(=O)Nc1ccc(Br)cc1	98	x	x	12
COc1ccc(C(=O)Nc2cc(C(F)(F)F)ccc2N2CCN(c3ccccc3)CC2)cc1OC	105	97	96	-8
Cc1nc2ccccn2c1-c1ccnc(SCC(=O)c2ccc(Cl)cc2)n1	106	109	85	22
Cc1cc(C)cc(N/C=C(\C#N)S(=O)(=O)Cc2ccc(Cl)cc2)c1	101	105	97	-3
Cc1cc(C)c2oc(-c3cccc(NC(=O)COc4ccccc4Cl)c3C)nc2c1	96	100	87	-32
COC(=O)NC(=S)Nc1ccc(Oc2ccc(Cl)cc2Cl)cc1	101	100	94	x
CCn1cc(C(=O)O)c(=O)c2cc(F)c(N3CCNCC3)cc21	100	-0.1*	0.2*	-30&-15&-12
CCn1c(SCc2ccc(Br)cc2)nnc1-c1ccncc1	103	106	97	x
Nc1nc(-c2ccc3c(c2)OCCCO3)cc(C(F)(F)F)n1	100	89	72	-6
O=C(O)c1cc(-c2ccco2)nc2ccc(Br)cc12	x	109	76	-26
Cc1ccc(CNC(=O)Cn2c(=O)n(-c3cccc(Cl)c3)c(=O)c3sc4ccccc4c32)cc1	104	107	87	-44
